Compound activity: PubChem, National Center for Advancing Translational Sciences (NCATS)
2A StopGo: High Throughput Screening for Foot and Mouth Disease Virus Antivirals. human cells with a luciferase reporter of 2A StopGo recoding; control for the full effect not named in the record. Potency, µM (top dose mostly 57.9 µM), inactives show at the highest dose signal change, negative = less light. actives 1.2% (n = 410,000); active = well fitted falling curve with a large enough effect; inconclusive = small, poorly fitted or top-dose-only effect; inactive = no such curve, though single readings can be large or run the other way; tested in HEK293T cells; note: % is set by controls: 0 for no effect and ±100 for the full control effect; nearly all actives have a fitted effect of over 45% in size; luciferase light after 4 h
LASV entry inh: qHTS for Inhibitors of binding or entry into cells for Lassa Virus; Lassa virus pseudotype entry inhibition, cell reporter; control for the full effect not named in the record; Potency, µM (titrated, usually from 37.9 µM), without a hit: at the top dose activity change, negative = inhibition, most hits filed as inhibitors; actives 1.2% (n = 300,000); active means well fitted inhibition curve with a large enough effect; inconclusive means small, poorly fitted or top-dose-only effect, or effect the other way; inactive means flat fitted curve, though single readings scatter; tested in HEK293 cells; note: % is set by controls: 0 for no effect and ±100 for the full control effect; nearly all actives have a fitted effect of over 50% in size; luciferase read-out
RE007 growth inh: qHTS Assay for Inhibitors of the HIV-1 protein Vpr; actives 0.21% (n = 360,000); Potency, µM (series often up to 92.2 µM), for inactives: at the highest dose activity change, negative = less growth; S. pombe RE007 Vpr strain, BacTiter-Glo ATP luminescence, 24 h; control for the full effect not named in the record; active = well fitted falling curve with a large enough effect; inconclusive = small, poorly fitted or top-dose-only effect; inactive = no such curve, though single readings can be large or run the other way;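 note: % is set by controls: 0 for no effect and ±100 for the full control effect; nearly all actives have a fitted effect of over 50% in size; the assay follows cell death caused by Vpr and the record does not say whether a fall means rescue or toxicity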
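Fission yeast strain RE007, carrying one chromosomally integrated HIV-1 vpr copy, was seeded at OD 0.01 in PMG+AL medium with 23 nL pinned compound. After 24 h at 30 °C and 99% humidity, viability was read by BacTiter-Glo luminescence.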
SARS PLP yeast: qHTS of Yeast-based Assay for SARS-CoV PLP; S. cerevisiae expressing SARS-CoV PLpro, growth rescue; control for the full effect not named in the record; Potency, µM (titrated, usually from 32.9 µM), for the others: top-dose activity, positive = growth rescue; actives 0.19% (n = 330,000); AID 485353, 2010; note: 0% is about no effect; nearly all actives have a fitted effect of over 55% in size; growth read by luminescence after 48 h
Cruzain inh noDet: qHTS Assay for Promiscuous and Specific Inhibitors of Cruzain (without detergent); Potency, µM, inactives show max response, negative = inhibition, actives largely listed as inhibitors; purified cruzain, Z-FR-AMC fluorescence, no detergent; actives 2.3% (n = 200,000); Cruzipain (Trypanosoma cruzi), P25779; active = well fitted curve in the direction sought with a large enough effect; inconclusive = small, poorly fitted or top-dose-only effect, or another doubt; inactive = no such curve, though single readings can be large; an effect the other way counts as inactive or inconclusive;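 note: plate controls were enzyme without inhibitor for no effect and buffer without enzyme for full effect; nearly all actives have a fitted effect of over 40% in size; top concentration of the series not given in the record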
Target sequence (P25779 123-467 limits assumed): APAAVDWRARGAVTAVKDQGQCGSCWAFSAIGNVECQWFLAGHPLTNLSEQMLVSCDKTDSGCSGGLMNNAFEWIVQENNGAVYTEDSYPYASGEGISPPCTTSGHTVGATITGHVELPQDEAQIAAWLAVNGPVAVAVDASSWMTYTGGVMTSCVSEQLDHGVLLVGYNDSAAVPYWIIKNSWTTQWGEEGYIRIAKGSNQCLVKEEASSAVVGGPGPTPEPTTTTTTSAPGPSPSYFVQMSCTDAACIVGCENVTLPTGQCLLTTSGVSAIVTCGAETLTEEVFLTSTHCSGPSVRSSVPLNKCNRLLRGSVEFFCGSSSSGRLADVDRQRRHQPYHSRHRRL
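Purified cruzain at 1.5 nM, pre-incubated 15 min with compound at room temperature in 100 mM sodium acetate pH 5.5, 5 mM DTT, 0.00005% Triton X-100. Reaction started with 2 uM Z-FR-AMC; AMC fluorescence increase over 60 s gives rate.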
Cruzain inh Det: qHTS Assay for Promiscuous and Specific Inhibitors of Cruzain (with detergent); Cruzipain (Trypanosoma cruzi), P25779; purified cruzain, Z-FR-AMC fluorescence, 0.01% Triton; Potency, µM, for the others: max response, negative = inhibition, actives largely listed as inhibitors; actives 0.43% (n = 200,000); AID 1478, 2009; active = well fitted curve in the direction sought with a large enough effect; inconclusive = small, poorly fitted or top-dose-only effect, or another doubt; inactive = no such curve, though single readings can be large; an effect the other way counts as inactive or inconclusive;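 note: plate controls were neutral wells for no effect and buffer without enzyme for full effect; nearly all actives have a fitted effect of over 40% in size; top concentration of the series not given in the record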
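Enzyme 1.5 nM, Z-FR-AMC 2 uM, NaOAc 100 mM pH 5.5, DTT 5 mM, Triton X-100 0.01%; 15 min RT compound preincubation; kinetic ex360/em450, 60 s delta.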
NS1 function inh: qHTS Assay for Inhibitors of Influenza NS1 Protein Function | S. cerevisiae slowed by influenza A NS1, growth recovery by OD600 | Potency, µM (doses to about 46.1 µM), for inactives: top-dose activity, positive = more growth | actives 0.4% (n = 270,000); note: actives are rising curves; nearly all actives have a fitted effect of over 50% in size
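In this qHTS, NS1 from influenza A is expressed in budding yeast, where it slows growth. Cells are switched from glucose to 2% galactose medium (pH 6.0, -URA), treated with compound, and growth recovery is read at OD600.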
Marburg entry inh: qHTS for inhibitors of binding or entry into cells for Marburg Virus. Marburg virus pseudotyped entry inhibition, cell reporter; control for the full effect not named in the record; about a third of the inactives were read at about 46 µM. Potency, µM (titrated, usually from 37.8 µM), without a hit: at the top dose activity change, negative = inhibition, hits mostly inhibitors. actives 1.8% (n = 300,000); active = well fitted inhibition curve with a large enough effect; inconclusive = small, poorly fitted or top-dose-only effect, or effect the other way; inactive = flat fitted curve, though single readings scatter; tested in HEK293 cells; about a fifth of its hits are not listed in these tables; note: % is set by controls: 0 for no effect and ±100 for the full control effect; luciferase read-out
* = called active by the depositor; ? = inconclusive; nt = no result given; [ ] = remark or other dose. Unless noted, calls come from the whole dose curve; as a rule, active means well fitted rising curve with a large enough effect; inconclusive means small, poorly fitted or top-dose-only effect; inactive means no such curve, though single readings can be large or run the other way. Potency is the fitted concentration of half-maximal effect.

The line under a structure holds: 2A StopGo | SARS PLP yeast | RE007 growth inh | LASV entry inh | Marburg entry inh | Cruzain inh Det | Cruzain inh noDet | NS1 function inh
COc1ccc(C/C(=N\OC(C)=O)c2ccc(OC)cc2)cc1
    28% | -18% | -13% | -26%[46.1 µM] | 2%[46.1 µM] | nt | nt | -40%
Cc1ccc2c(CN(C)Cc3ccc(Cl)cc3Cl)cc(=O)oc2c1
    -18% | -2% | -21% | nt | ? | nt | nt | -32%
CC(=O)Nc1cn(-c2ccccc2)nc1-c1ccccc1
    -1% | 0% | 16% | -4%[46.1 µM] | ? | nt | nt | nt
COc1cccc(CNC(=O)N2CCN(S(=O)(=O)c3ccc(Cl)cc3)CC2)c1
    12% | -1% | 9% | 18%[46.1 µM] | -9%[46.1 µM] | nt | nt | -8%
COc1nc(NCCN2CCOCC2)nc(Nc2ccc([N+](=O)[O-])cc2)n1
    8% | -15% | 9% | 0% | 2% | -3.4% | -5% | 5%
C=C1C(C)C2C(Cc3ccccc3)NC(=O)C23C(OC(C)=O)C=CC(C)(O)CC(C)CC=CC3C1O (configuration not stated)
    -13% | nt | -18% | 2.2µM* | 4µM* | nt | nt | nt
O=C1/C(=C/c2ccc(F)cc2)Oc2cc(OC(=O)N3CCOCC3)ccc21
    -3% | 1% | -4% | 5% | 19% | nt | nt | 4%
O=C(CCc1nnc2ccc(NCc3ccccc3)nn12)NC1CCCCC1
    -3% | 2% | -14% | 24%[46.1 µM] | -1%[46.1 µM] | nt | nt | 14%
Cc1nc(SCC(=O)N2CCc3ccccc32)n[nH]1
    40%[activator] | -7% | 17% | 15% | 7% | 3.0% | -8% | -2%
CC(=O)N1c2ccc(S(=O)(=O)NCC3CCC(C(=O)N4CC(C)CC(C)C4)CC3)cc2CC1C (configuration not stated)
    -14% | ? | -9% | nt | nt | nt | nt | 1%
Cc1ccc(NC(=O)C(C)N=C2NS(=O)(=O)c3ccccc32)cc1 (configuration not stated)
    34%[activator] | -1% | -2% | -1% | 13% | nt | nt | nt
Cc1cc2nnc(SCC(=O)NC3CCCCC3)n2c(N)n1
    31%[activator] | 0% | -16% | 6%[46.1 µM] | -3%[46.1 µM] | nt | nt | 18%
CSC1=N/C(=C\c2ccccc2F)C(=O)S1
    -14% | 0% | -13% | ? | ? | -5.3% | -3% | -51%
CCCCC(=O)N1CCN(c2nc3ccc(OCC)cc3s2)CC1
    -10% | -8% | 1% | nt | nt | nt | nt | -9%
O=C(NC(Nc1nc2ccc([N+](=O)[O-])cc2s1)(C(F)(F)F)C(F)(F)F)c1ccccc1Cl
    2.5µM* | -99% | -8% | 1.6µM* | ? | -4.5% | -1% | -37%
CCN1CCN(CCNC(=O)c2ccc(CS(=O)(=O)c3ccccc3C)o2)CC1
    -2% | 0% | 2% | -7% | -1% | -1.2% | -2% | 2%
Cc1cc(C)nc(N/N=C/c2ccccc2OCc2ccccc2)n1
    -1% | -12% | -11% | ? | ? | -4.8% | 6% | 3%
COc1ccc(C(=O)Nc2ccnn2C2CCN(C3CCC3)CC2)cc1
    23% | 8% | 3% | nt | nt | nt | nt | 0%
Cn1cc(CNCc2cnc3ccccn23)c(-c2ccc(Oc3ccccc3)cc2)n1
    -11% | 0% | 8% | ? | ? | nt | nt | 4%
O=C(Cc1ccccc1F)Nc1ccc2c(c1)CCC2
    51%[activator] | -3% | 11% | -3% | ? | nt | nt | -4%
CC(C)(C)NS(=O)(=O)c1ccc(OCC(=O)NCCC2=CCCCC2)cc1
    3% | 8% | -4%[3.69 µM] | 0% | 9% | 7.3% | 0% | -4%
O=C(O)CCc1ccc(-c2cccs2)n1CCc1ccccc1
    -22% | 0% | -12% | 9% | 7% | nt | nt | 7%
O=C(NCc1ccc(F)cc1)C1CCN(S(=O)(=O)N2CCC3(CC2)OCCO3)CC1
    nt | 1% | 6% | 4% | 6% | 7.8% | 20% | -10%
Oc1c(C(c2ccccc2)N2CCOCC2)sc2nc(-c3ccco3)nn12 (configuration not stated)
    -4% | nt | nt | -2%[46.1 µM] | nt | -0.8% | 7% | nt
CN(C(=O)COC(=O)c1ccc(Cl)nc1)C1CCS(=O)(=O)C1 (configuration not stated)
    3% | -3% | 17% | 6% | ? | nt | nt | nt
O=C(O)c1ccc(C2Nc3ccccc3C(=O)N2Cc2ccccc2)cc1 (configuration not stated)
    -5% | nt | 13% | nt | 9%[46.1 µM] | nt | nt | ?
O=C(Nc1ccc2nc3n(c(=O)c2c1)CCCCC3)c1ccccc1[N+](=O)[O-]
    8% | -3% | -21% | nt | nt | nt | nt | -10%
Cc1nc2sc(C)c(C)c2c(=O)[nH]1
    25% | -24% | 0% | 4% | 11% | -1.2% | 11% | -62%
COc1nccnc1NS(=O)(=O)c1ccc(NC(=S)NC(=O)c2ccc(F)c(F)c2)cc1
    15% | -5% | 7% | ? | 16% | -8.0% | 4% | 7%
O=C1OC(C(=O)Nc2cccc(Br)c2)Cc2ccccc21 (configuration not stated)
    24% | nt | nt | -17%[46.1 µM] | 28%[46.1 µM] | -0.5% | ? | nt
COc1ccc(/C(C)=N\NS(=O)(=O)c2ccccc2)cc1OC
    28% | 4% | 0% | 5% | 1% | -3.8% | 12% | 0%
CCOc1ccc(OC(=O)c2cn(-c3ccc(C)cc3)c(=O)c3ccccc23)cc1
    -27% | nt | nt | ? | nt | -1.2% | -21% | nt
Cc1cc2c(cc1S(=O)(=O)N(C)c1ccccc1)n(C)c(=O)n2C
    -21% | 0% | -9% | nt | nt | nt | nt | -4%
O=C(CCCC(=O)N/N=C\c1ccccn1)N/N=C\c1ccccn1
    -19% | -15% | 10% | 4% | 0% | -4.5% | 9% | 14%
CCCCn1c(O)c(C=NCCN2CCCCC2)c(=O)[nH]c1=O
    7% | -5% | -5% | 0% | 2% | -7.3% | -4% | 17%
Cc1cc(C)n(CCNC(=O)C2CCC(=O)N(CC3CCCCC3)C2)n1 (configuration not stated)
    -6% | 4% | 15% | nt | nt | nt | nt | 3%
COc1ccc(Cl)cc1C(=O)NC(=S)Nc1nc(C)cc(C)n1
    -16% | nt | -10% | 8% | -12% | nt | nt | nt
CCCS(=O)(=O)c1c(S(=O)(=O)CCC)c2cnccn2c1C(=O)c1ccc(F)cc1
    nt | -1% | -1% | -2% | -6% | 0.6% | ? | -6%
O=C1c2ccccc2C(=O)c2c([N+](=O)[O-])ccc(O)c21
    ? | -3% | -22% | 4%[46.1 µM] | 7%[46.1 µM] | nt | nt | 1%
Cc1cc(C(F)(F)F)cc(NNC(=O)NC(=O)c2ccccc2Cl)n1
    -10% | 1% | 13% | nt | nt | nt | nt | -3%
Cc1ccc(CN(C)C(=O)c2ccc(NS(=O)(=O)c3ccc4[nH]c(=O)[nH]c4c3)cc2)cc1
    3% | 2% | 10% | 5% | ? | nt | nt | nt
CC1CCN(S(=O)(=O)c2ccc3c(c2)CCN3C(=O)Nc2ccccc2Br)CC1
    -18% | nt | nt | -16%[46.1 µM] | 5%[46.1 µM] | -3.0% | -11% | nt
Cc1nc(N)nc(OCC(F)(F)C(F)F)c1Br
    -1% | -2% | -10% | 1% | 3% | 2.4% | 7% | -14%
Cc1cc(O)c(C(C)C)cc1N=Cc1ccc([N+](=O)[O-])cc1
    0% | nt | -16% | 13% | 2% | nt | nt | nt
CNC(=S)NNC(=O)Cc1ccccc1
    12% | -2% | -4% | 0% | -4% | 5.2% | 5% | -3%
CN1CCNC(=O)C1CC(=O)N1CC=C(c2ccc(F)cc2)CC1 (configuration not stated)
    -5% | 0% | -13% | 14%[46.1 µM] | 12%[46.1 µM] | nt | nt | 4%
CCOc1ccc(C(=O)c2ccccc2C(=O)O)cc1OCC
    -12% | 0% | -18% | 10%[46.1 µM] | 0%[46.1 µM] | nt | nt | nt
CCOC(=O)c1ccc(NC(=O)CN2CCN(CCN=CC3=C(O)CC(C)(C)CC3=O)CC2)cc1
    -5% | 15% | 52% | 14%[46.1 µM] | 5%[46.1 µM] | -2.4% | 3% | -19%
O=C(CSc1c[nH]c2ccccc12)NCc1ccc2c(c1)OCO2
    24% | -12% | -3% | nt | nt | -11% | 4% | -4%
COc1cc2c(c(OC)c1OC)-c1ccc(OC)c(=O)cc1[C@@H](N(C)CC#CCO)CC2
    -3% | 0% | -4% | ? | nt | nt | nt | 0%
C=CCOn1c(=O)c(-c2ccc(F)cc2)[n+]([O-])c2ccccc21
    -3% | 0% | 1% | nt | nt | nt | nt | 2%
Cc1cc(C)cc(NC(=O)N2CCCN(c3ncccc3[N+](=O)[O-])CC2)c1
    -19% | 0% | -1% | nt | nt | nt | nt | 0%
CCN(CC)CCNC(=O)CCN1N=C(c2ccccc2)CCC1=O
    -27% | 2% | -16% | nt | nt | nt | nt | 3%
O=C(Nc1ccccc1)c1ccccc1Oc1ccc(C(F)(F)F)cc1[N+](=O)[O-]
    0% | -43% | 21% | -17% | ? | -8.8% | -4% | -31%
CC(Oc1ccc2ccccc2c1)C(=O)N/N=C/c1cccnc1 (configuration not stated)
    -11% | 0% | 5% | -10%[46.1 µM] | ? | nt | nt | -11%
CC(C)C(=O)Nc1nnc(COc2ccc(Cl)cc2)s1
    -5% | -1% | -5% | nt | -4% | nt | nt | 7%
CN(c1ccccc1)S(=O)(=O)c1ccc(Cl)c(C(=O)Nc2ccc(-c3nc4ccccc4[nH]3)cc2)c1
    ? | -6% | -17% | ? | ? | -3.6% | 13µM* | 9%
O=C(NCC1CCCO1)C1CCC(CNS(=O)(=O)c2ccccc2)CC1 (configuration not stated)
    -24% | 3% | -4% | 6% | 7% | 4.9% | -3% | -1%
